Cruzain noTriton = qHTS Assay for Promiscuous and Specific Inhibitors of Cruzain (without detergent); Cruzipain (Trypanosoma cruzi), P25779; purified cruzain, Z-FR-AMC fluorescence, no detergent; Potency, µM, inactives show max response, negative = inhibition, most hits filed as inhibitors; 200,000 compounds, 2.3% hits; AID 1476, 2009; active means well fitted curve in the direction sought with a large enough effect; inconclusive means small, poorly fitted or top-dose-only effect, or another doubt; inactive means no such curve, though single readings can be large; an effect the other way counts as inactive or inconclusive;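 further: plate controls were enzyme without inhibitor for no effect and buffer without enzyme for full effect; nearly all actives have a fitted effect of over 40% in size; top concentration of the series not given in the record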
Target sequence (P25779 123-467 limits assumed): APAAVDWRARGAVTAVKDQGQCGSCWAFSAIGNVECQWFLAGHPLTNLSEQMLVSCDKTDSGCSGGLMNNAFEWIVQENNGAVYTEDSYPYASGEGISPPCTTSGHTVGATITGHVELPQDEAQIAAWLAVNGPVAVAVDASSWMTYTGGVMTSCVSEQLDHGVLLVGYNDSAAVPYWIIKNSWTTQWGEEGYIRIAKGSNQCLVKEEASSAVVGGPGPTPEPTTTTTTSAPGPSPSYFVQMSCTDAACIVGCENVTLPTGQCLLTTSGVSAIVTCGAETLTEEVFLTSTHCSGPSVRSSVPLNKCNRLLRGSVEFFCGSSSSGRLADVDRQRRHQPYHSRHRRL
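Purified cruzain at 1.5 nM, pre-incubated 15 min with compound at room temperature in 100 mM sodium acetate pH 5.5, 5 mM DTT, 0.00005% Triton X-100. Reaction started with 2 uM Z-FR-AMC; AMC fluorescence increase over 60 s gives rate.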
NS1 function inh = qHTS Assay for Inhibitors of Influenza NS1 Protein Function | S. cerevisiae slowed by influenza A NS1, growth recovery by OD600 | Potency, µM (highest dose often 46.1 µM), for inactives: at the top dose activity, positive = more growth | 270,000 compounds, 0.4% hits; further: actives are rising curves; nearly all actives have a fitted effect of over 50% in size
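OD600 was taken as the measure of yeast growth restored by compound in an NS1-expressing S. cerevisiae strain. Cells had been washed out of glucose medium and diluted 1:100 into galactose -URA medium, pH 6.0.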
RE007 growth inh = qHTS Assay for Inhibitors of the HIV-1 protein Vpr | Potency, µM (series often up to 92.2 µM), for inactives: top-dose activity change, negative = less growth | S. pombe RE007 Vpr strain, BacTiter-Glo ATP luminescence, 24 h; control for the full effect not named in the record | AID 651644, 2012 | 360,000 compounds, 0.21% hits; active = well fitted falling curve with a large enough effect; inconclusive = small, poorly fitted or top-dose-only effect; inactive = no such curve, though single readings can be large or run the other way;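 further: on the % scale 0 is the no-effect control and ±100 the full control effect; nearly all actives have a fitted effect of over 50% in size; the assay follows cell death caused by Vpr and the record does not say whether a fall means rescue or toxicity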
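Fission yeast RE007 carrying one integrated HIV-1 vpr copy, seeded at OD 0.01 in PMG+AL medium with 23 nL pinned compound. Grown 24 h at 30 degrees; viability read by BacTiter-Glo luminescence after 5 min.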
Cruzain Triton = qHTS Assay for Promiscuous and Specific Inhibitors of Cruzain (with detergent) | purified cruzain, Z-FR-AMC fluorescence, 0.01% Triton | Potency, µM, inactives show max response, negative = inhibition, actives largely listed as inhibitors | 200,000 compounds, 0.43% hits; active means well fitted curve in the direction sought with a large enough effect; inconclusive means small, poorly fitted or top-dose-only effect, or another doubt; inactive means no such curve, though single readings can be large; an effect the other way counts as inactive or inconclusive;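 further: plate controls were neutral wells for no effect and buffer without enzyme for full effect; nearly all actives have a fitted effect of over 40% in size; top concentration of the series not given in the record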
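In this qHTS format, compounds are incubated with 1.5 nM cruzain for 15 min at room temperature before 2 uM Z-FR-AMC is added. Release of AMC is followed at 360/450 nm, and progress is taken as the 60 s fluorescence difference.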
MARV entry inh = qHTS for inhibitors of binding or entry into cells for Marburg Virus; Marburg virus pseudotyped entry inhibition, cell reporter; control for the full effect not named in the record; about a third of the inactives were read at about 46 µM; Potency, µM (doses to about 37.8 µM), for the others: top-dose activity change, negative = inhibition, usual class: inhibitors; 300,000 compounds, 1.8% hits; active = well fitted inhibition curve with a large enough effect; inconclusive = small, poorly fitted or top-dose-only effect, or effect the other way; inactive = flat fitted curve, though single readings scatter; tested in HEK293 cells; about a fifth of its hits are not listed in these tables; further: on the % scale 0 is the no-effect control and ±100 the full control effect; luciferase read-out
StopGo reporter = High Throughput Screening for Foot and Mouth Disease Virus Antivirals; 410,000 compounds, 1.2% hits; Potency, µM (highest dose often 57.9 µM), without a hit: at the top dose signal change, negative = less light; human cells with a luciferase reporter of 2A StopGo recoding; control for the full effect not named in the record; active = well fitted falling curve with a large enough effect; inconclusive = small, poorly fitted or top-dose-only effect; inactive = no such curve, though single readings can be large or run the other way; tested in HEK293T cells; further: on the % scale 0 is the no-effect control and ±100 the full control effect; nearly all actives have a fitted effect of over 45% in size; luciferase light after 4 h
SARS PLP yeast = qHTS of Yeast-based Assay for SARS-CoV PLP | 330,000 compounds, 0.19% hits | AID 485353, 2010 | S. cerevisiae expressing SARS-CoV PLpro, growth rescue; control for the full effect not named in the record | Potency, µM (titrated, usually from 32.9 µM), without a hit: top-dose activity, positive = growth rescue; further: 0% is about no effect; nearly all actives have a fitted effect of over 55% in size; growth read by luminescence after 48 h
Lassa entry inh = qHTS for Inhibitors of binding or entry into cells for Lassa Virus; Lassa virus pseudotype entry inhibition, cell reporter; control for the full effect not named in the record; Potency, µM (doses to about 37.9 µM), for the others: top-dose activity change, negative = inhibition, most hits filed as inhibitors; 300,000 compounds, 1.2% hits; AID 540256, 2011; active means well fitted inhibition curve with a large enough effect; inconclusive means small, poorly fitted or top-dose-only effect, or effect the other way; inactive means flat fitted curve, though single readings scatter; tested in HEK293 cells; further: on the % scale 0 is the no-effect control and ±100 the full control effect; nearly all actives have a fitted effect of over 50% in size; luciferase read-out
Starred values were filed as active, the others as inactive; u = inconclusive; x = no result given; & = joins results of further samples; [ ] = remark or other dose. Unless noted, the call rests on the fitted dose curve; in most records, active means well fitted rising curve with a large enough effect; inconclusive means small, poorly fitted or top-dose-only effect; inactive means no such curve, though single readings can be large or run the other way. Potency means the concentration at half of the fitted maximal effect.

SMILES | Cruzain noTriton | NS1 function inh | RE007 growth inh | Cruzain Triton | MARV entry inh | StopGo reporter | SARS PLP yeast | Lassa entry inh
O=C(NC(c1ccccc1)c1ccccc1)c1ccccc1 | x | x | 1% | x | -6%[46.1 µM] | -21% | x | -21%[46.1 µM]
Cc1cc(NC(=S)N(CCN2CCCCC2)Cc2ccco2)ccc1Cl | x | 9% | -10% | x | u | 3% | -2% | u
CCCCn1c(N)c(N(CC)C(=O)C2COc3ccccc3O2)c(=O)[nH]c1=O (stereo not given) | x | x | -15% | x | 10% | -2% | -2% | -5%
CC(=O)c1ccc(OCc2cc(C(=O)NCCn3nc(C)cc3C)no2)cc1 | x | 9% | -16% | x | 18% | 47%[activator] | -1% | -25%
O=C(c1ccccc1)c1cn(Cc2ccc(F)cc2)c2ccccc2c1=O | -4% | x | x | -3.4% | u | 3% | x | u
COc1ccc(-c2nn(-c3ccccc3)cc2/C=C/C(=O)O)cc1[N+](=O)[O-] | x | 14% | -23% | x | x | -26% | 7% | x
O=C(NCc1ccco1)c1cccc(NC(=O)c2ccco2)c1 | 0% | -6% | 4% | 0.6% | u | 23% | -3% | u
COC(=O)c1cc(NC(=O)COC(=O)CCc2c[nH]c3ccccc23)cc(C(=O)OC)c1 | x | x | 13% | x | u | -18% | -3% | -1%
CSc1ccc(S(=O)(=O)N2CCC(C(=O)NCCCn3ccnc3)CC2)cc1 | x | 13% | -7% | x | -9% | -15% | -1% | 0%
CC(C)(C)n1nc2c(c1NC(=O)Cc1ccc(F)cc1)CS(=O)(=O)C2 | x | 3% | -5% | x | 3%[46.1 µM] | 0% | 9% | -13%[46.1 µM]
COc1ccc(NC(=O)c2c(NCc3ccc(C)o3)sc3c2CCCCC3)c(OC)c1 | -4% | x | x | -8.2% | x | -2% | x | u
COc1ccccc1C=NNc1ccc([N+](=O)[O-])cn1 | x | x | -5% | x | 0% | 2% | x | 17%
Cc1cccc(/C=c2\s/c(=C\C(=O)C(C)(C)C)[nH]c2=O)c1 | 0% | -76% | 1% | -10.0% | -12% | -1% | -23% | u
CCCC(c1nnnn1Cc1ccco1)N1CCC(C(N)=O)CC1 (stereo not given) | 10% | -2% | 21% | 7.1% | 17%[46.1 µM] | 14% | 1% | 15%
O=C(OCc1ccccc1)c1ccc(NCc2cc(O)ccc2O)cc1 | x | x | u | x | u | 10µM* | x | 2.5µM*
CCOC(=O)N1CCN(C(=O)c2ccc3c(c2)NC(=O)/C(=C/c2ccccc2)S3)CC1 | x | 13% | 0% | x | u | 11% | 0% | u
Cc1cccc(C)c1NC(=O)NNC(=O)c1cc(C(C)(C)C)nn1Cc1ccccc1 | x | 3% | -7% | x | -7%[46.1 µM] | 27% | 0% | 1%
COc1ccccc1NS(=O)(=O)c1ccc(N/N=C/c2c(C)nn(-c3ccccc3)c2N2CCCC2)c([N+](=O)[O-])c1 | 3.2µM* | 19% | -4% | -1.4% | u | 6% | 1% | u
CC1=C(C(=O)Nc2ccccc2)C(c2ccccn2)n2nc(CCCO)nc2N1 (stereo not given) | -1% | 1% | -7% | 1.7% | 2% | -24% | 3% | x
O=C(CCCN1Cc2ccccc2C1)c1ccc(F)cc1 | -7% | -5% | 11% | 3.8% | u | -3% | -5% | 25%
O=C(Nc1ccc2oc(-c3ccncc3)nc2c1)c1cccs1 | -10% | -17% | -2% | u | u | 0% | -6% | -5%
CC(C)c1ccc(-n2c(O)c(/C=N/NC(=O)c3ccccc3O)c(=O)[nH]c2=S)cc1 | x | u | 3% | x | -1%[46.1 µM] | -5% | 3% | -18%[46.1 µM]
Cn1c(CNC(=O)C(Cc2ccccc2)NC(=O)c2ccccc2F)cc(=O)n(C)c1=O (stereo not given) | x | -2% | 8% | x | x | -10% | -3% | x
Clc1ccccc1/C=N/Nc1cc(N2CCOCC2)ncn1 | x | 0% | 19% | x | u | 58%[activator] | 0% | u
Cc1cc(C)cc(NC(=O)C2CCN(S(=O)(=O)c3ccc4c(c3)oc(=O)n4C)CC2)c1 | -7% | x | x | 0.0% | -1%[46.1 µM] | -17% | x | 2%[46.1 µM]
(listing goes on)
SMILES | Cruzain noTriton | NS1 function inh | RE007 growth inh | Cruzain Triton | MARV entry inh | StopGo reporter | SARS PLP yeast | Lassa entry inh
Cc1ccc(CNC(=O)CCCN2C(=S)NC(C)(C)CC2C)cc1 (stereo not given) | x | x | -10% | x | -5% | 6% | -5% | 9%
CN(C(=O)COc1ccc(Oc2ccccc2)cc1)C1CCS(=O)(=O)C1 (stereo not given) | x | -9% | 3% | x | -5% | -15% | 7% | -27%
CCCN1C(=O)/C(=N\OCC(=O)Nc2ccc(C(C)C)cc2)c2ccccc21 | 8% | 28% | x | -6.8% | u | 0% | -10% | u
COc1ccccc1OC(C)C(=O)Nc1cccc(-c2nc3ccccc3o2)c1 (stereo not given) | -11% | x | x | 0.3% | -23%[46.1 µM] | -18% | x | 20%[46.1 µM]
Cc1c(NC(=O)c2cccs2)cccc1-c1nc2cc(Cl)ccc2o1 | u | x | x | -5.5% | -14%[46.1 µM] | -4% | x | 13%[46.1 µM]
Cn1nc(C(C)(C)C)cc1NC(=O)Nc1ccc(F)cc1F | x | -1% | -16% | x | -13% | -6% | 1% | 1%
Cc1nc(-c2ccc(-c3ccc(C(=O)N4CCc5cc6c(cc54)C4(CCN(C)CC4)CO6)cc3)c(C)c2)no1 | -8%&15% | -2% | x | 2.3%&0.5% | 5µM* | -17% | x | x
O=C(Nc1cccc(F)c1)N1C2CCC1CC(O)(c1cccnc1)C2 (stereo not given) | x | -1% | -5% | x | -5%[46.1 µM] | 1% | 0% | 12%
CCCCOc1ccc(CNC(=O)c2ccc(-c3nc(CN4CCc5ccccc54)c(C)o3)cc2)cc1 | 4% | x | x | -1.1% | x | -14% | x | u
O=C(CSc1nccn1-c1ccc(Cl)cc1)Nc1cccc2ccccc12 | 9% | x | x | -7.7% | x | -17% | x | u
CCOc1ccc(C(NC(C)=O)c2ccc(OC)c(OC)c2)cc1 (stereo not given) | x | 1% | 9% | x | 20%[46.1 µM] | -6% | 10% | 13%
CCN1CCN(c2nc([N+](=O)[O-])nn2C)CC1 | x | 1% | 10% | x | -17%[46.1 µM] | 28% | 1% | -7%[46.1 µM]
COc1ccccc1CNC(=O)c1c(O)nc2cc(C)ccn2c1=O | 9% | x | x | 1.1% | 3%[46.1 µM] | -8% | x | x
CCOc1ccccc1N(CC(=O)NCc1ccc(OC)cc1)S(C)(=O)=O | 12% | 0% | 14% | 3.4% | -1% | x | -2% | 4%
CC1=Nc2cc(C(=O)N3CCC4(CC3)OCCO4)ccc2Sc2ccc(Cl)cc21 | x | 12% | 5% | x | x | -3% | 21% | x
COc1cc(C)c(Br)cc1S(=O)(=O)NCc1cccs1 | x | 0% | -8% | x | -1% | 59%[activator] | 3% | -14%
O=C(Cc1ccc(F)cc1)Nc1ccccc1Sc1ccccc1 | -12% | -12% | -1% | -4.8% | x | -15% | 19% | x
O=C(CN1CCN(CC(=O)Nc2ccc3c(c2)OCO3)CC1)Nc1ccc(F)cc1 | -4% | -16% | 13% | 1.8% | 4% | -14% | 2% | -6%
Cc1ccc(C)c(NC(=O)N(C)CCc2c(C)nn(C)c2C)c1 | -7% | x | x | -0.5% | x | -6% | x | 8%[46.1 µM]
CCn1nc(NS(=O)(=O)c2ccc(F)cc2)c2cc3cccc(C)c3nc21 | x | 3% | 7% | x | -2%[46.1 µM] | 11% | -5% | 17%[46.1 µM]
CC(NC(=O)c1ccccc1NC(=O)c1ccncc1)c1ccccc1 (stereo not given) | x | -2% | 2% | x | -7%[46.1 µM] | -14% | 0% | 3%[46.1 µM]
O=c1oc2ccccc2cc1-c1nc2c(s1)CCc1ccccc1-2 | u | 12% | -19% | -6.7% | 5%&5% | 8% | 1% | 0%
Cc1onc(-c2c(F)cccc2Cl)c1C(=O)N(C)C1CCCCC1 | x | -4% | 1% | x | x | -24% | 7% | x
O=C1c2ccccc2C(=O)c2c1cccc2N(CCO)CCO | x | 7% | -14% | x | 6%[46.1 µM] | -9% | -6% | 3%[46.1 µM]
COc1cc2[nH]c(=O)n(CCCC(=O)N(C)Cc3ccccc3)c(=O)c2cc1OC | -4% | x | x | -2.2% | 2%[46.1 µM] | -15% | x | -28%[46.1 µM]
The list continues:
SMILES | Cruzain noTriton | NS1 function inh | RE007 growth inh | Cruzain Triton | MARV entry inh | StopGo reporter | SARS PLP yeast | Lassa entry inh
CCC1=Nc2cc(C(=O)O)ccc2Sc2ccccc21 | 4% | 19% | -1% | -5.3% | 18% | -15% | 11% | 0%
COc1ccc(S(=O)(=O)N2CCOCC2)cc1NC(=O)c1cc2ccccc2o1 | x | x | 27% | x | -12%[46.1 µM] | 4% | -1% | -23%
C=CCN(CC=C)S(=O)(=O)c1ccc(NC(=S)NC(=O)c2ccc(-c3ccccc3)cc2)cc1 | -8% | 0% | 2% | 1.1% | u | u | 0% | -18%
CC(=O)N/C(=C\c1ccc(F)cc1)C(=O)N(C)C | 6% | 15% | -3% | -1.8% | 11% | -3% | 18% | 7%
COc1ccc(-c2noc(-c3ccc(NCC4CCCO4)c([N+](=O)[O-])c3)n2)cc1 (stereo not given) | -3% | x | x | -1.9% | 3%[46.1 µM] | -6% | x | -1%[46.1 µM]
Cc1cc(CNC(=O)COc2ccc(F)cc2F)c2ccccc2n1 | x | x | -10% | x | 9%[46.1 µM] | u | 0% | -17%
Cc1c(C(=O)O)sc2nc3n(c(=O)c12)CCC(C)CC3 (stereo not given) | -3% | 0% | 3% | -1.8% | -14% | x | 8% | -15%
O=C(CCCCl)N1CCc2[nH]c3ccccc3c2C1 | x | x | 16% | x | u | -15% | 1% | 6%[46.1 µM]
O=C(CSc1n[nH]c(-c2ccncc2)n1)Nc1ccc(Br)cc1 | x | -6% | -17% | x | 0% | 5% | 5% | u
Cc1cc(NC(=O)CSc2nc3cc(Cl)ccc3c(=O)n2Cc2ccco2)no1 | x | x | 43% | x | u | -4% | 1% | -11%
COc1ccc(C(=O)COC(=O)C2CCC(=O)N2)cc1 (stereo not given) | x | 0% | 2% | x | 3%[46.1 µM] | -8% | -2% | x
